Vif A3G: HIV-1 Vif–A3G interaction blockers – biochemical, TR-FRET, GST-Vif 1-94, biotin-A3G peptide, dose response retest, primary screen (AID 1117319). TR-FRET GST-Vif / biotin-A3G peptide binding; higher % means a stronger effect; test concentration not given here; strong numbers were not always called active. inhibition, %, or IC50 in µM where a hit was titrated. 260,000 compounds, 0.57% hits;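 active = above the screen mean plus three standard deviations and confirmed in dose response; inconclusive = results disagree or hit not tested in dose response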;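 note: Vif residues 1-94 fused to GST binding biotinylated APOBEC3G peptide 110-148; 0% = full assay without inhibitor and 100% = GST in place of GST-Vif; retest series ran down from 100 µM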
Ecoli rRNA inh: inhibits bacterial ribosomal RNA function over humanized ribosomes; E. coli WT GFP vs humanized-ribosome RFP mutants, fluorescence, 24 h; active compounds read low; DMSO median 0, no signal -100; GFP signal change (wild-type ribosome), % (no concentration beside the values); 350,000 compounds, 1.6% hits; AID 720706;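 active = significant combined selectivity score with lowered wild-type GFP, culture density cut under 30%, mutant RFP and density less affected; inactive = any of these conditions unmet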; note: one replicate is shown; some compounds called inactive have numbers as strong as hits
E coli growth: E. coli growth inhibition. Escherichia coli growth, OD600, 23 h; active compounds read low. OD600 absorbance (no concentration beside the values). 330,000 compounds, 0.21% hits;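 active = OD600 absorbance below the run mean of sample wells minus 3.6 SD, in any replicate, cut at about 0.56 in these data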;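 note: stock transfer was 300 nL into about 60 µL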
FGF22 binding: binders of recombinant human FGF22 by thermal shift; Q9HCT0; SYPRO orange fluorescence; percent of sucrose octasulfate shift, DMSO zero; calls only at 9.99 µM; 340,000 compounds, 1.5% hits;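 active = melting point raised past a set limit in the mean and every replicate; inconclusive = no clear call; three in four hits are not shown here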
Target sequence (Q9HCT0 whole entry, looked up): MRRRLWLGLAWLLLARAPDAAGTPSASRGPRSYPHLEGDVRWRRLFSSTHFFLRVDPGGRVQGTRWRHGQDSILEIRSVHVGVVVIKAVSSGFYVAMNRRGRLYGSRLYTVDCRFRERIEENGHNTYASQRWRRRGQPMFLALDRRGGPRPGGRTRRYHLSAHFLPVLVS
ALR H2O2 inh: human ALR oxidase inhibition via reduced H2O2; purified ALR, DTT oxidation, H2O2 HRP-luminol luminescence; inhibition, % (test concentration not listed); 290,000 compounds, 3.8% hits; AID 485317;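 active = mean and each replicate at 75% or more; inconclusive = only one of the two met; inactive = neither met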;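 note: stock transfer was 7.5 nL into about 7.5 µL; 0% = neutral wells and 100% = wells with inactivated enzyme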
Target sequence (P55789 whole entry, looked up): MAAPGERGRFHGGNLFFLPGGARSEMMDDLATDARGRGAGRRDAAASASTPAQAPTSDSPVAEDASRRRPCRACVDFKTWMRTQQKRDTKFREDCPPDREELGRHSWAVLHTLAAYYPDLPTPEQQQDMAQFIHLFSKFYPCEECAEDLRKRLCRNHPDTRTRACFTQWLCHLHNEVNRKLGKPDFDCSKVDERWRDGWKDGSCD
HNF4A DNA FP: change in binding of human HNF4 alpha to DNA; P41235; HNF4a-FITC DNA binding, fluorescence polarization, 1 h; activity change, % at 10 µM; 360,000 compounds, 0.3% hits; AID 1224865; in the data active = activity change above about 30%, passing the limit was not always enough;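 note: controls were the assay level and a saturating level of protein; the project sought stronger binding though the title names inhibitors; some compounds called inactive have numbers as strong as hits; positive values seem to mean higher polarization but the record does not say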
AF4-AF9 inh: MLL-AF4/AF9 protein interaction inhibition; P42568; AlphaScreen, biotin-AF4 peptide binding to FLAG-AF9; inhibition, % at 10 µM; 350,000 compounds, 0.47% hits; AID 651704;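 active = every replicate reaching a set inhibition limit, whatever the replicate mean, cut at about 25% in these data; inconclusive = mean inhibition reaches that limit but some replicates miss it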;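 note: 0% = plate neutral control median and 100% = total signal loss; the record names both 10 and 1 µM as test concentration; the first replicate is given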
Target sequence (P42568 whole entry, looked up): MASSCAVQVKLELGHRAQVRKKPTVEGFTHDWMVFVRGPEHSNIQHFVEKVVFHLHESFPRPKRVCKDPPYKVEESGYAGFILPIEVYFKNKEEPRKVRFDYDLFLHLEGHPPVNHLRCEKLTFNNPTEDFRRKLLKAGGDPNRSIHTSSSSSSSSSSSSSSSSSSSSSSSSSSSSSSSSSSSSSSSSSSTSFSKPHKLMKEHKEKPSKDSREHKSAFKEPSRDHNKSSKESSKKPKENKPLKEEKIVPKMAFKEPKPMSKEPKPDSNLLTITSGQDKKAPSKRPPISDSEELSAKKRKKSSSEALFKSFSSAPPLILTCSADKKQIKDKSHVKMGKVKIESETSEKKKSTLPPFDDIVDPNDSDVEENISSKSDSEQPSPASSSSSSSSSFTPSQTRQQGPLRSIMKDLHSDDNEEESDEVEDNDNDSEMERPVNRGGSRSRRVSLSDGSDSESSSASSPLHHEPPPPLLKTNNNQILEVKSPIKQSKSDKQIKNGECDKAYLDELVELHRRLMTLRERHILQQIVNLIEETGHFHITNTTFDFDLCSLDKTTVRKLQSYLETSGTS
Ecoli rRNA inh OD600: second read-out of Ecoli rRNA inh, no call of its own (marks repeat the call); OD600 change, %; measured here: OD600 growth;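 optical density of the mix in the first replicate; 0 = DMSO median and -100 = no signal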
Ecoli rRNA inh RFP: further read-out of Ecoli rRNA inh, marked with its call; RFP signal change, %; measured here: RFP humanized mutant strains;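 first replicate; 0 = DMSO median and -100 = no signal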
Active calls of the source: *; i = inactive; ? = inconclusive; . = not tested or not shown. Some of the compounds tested. The share of hits here may be higher or lower than overall.

SMILES	Vif A3G	Ecoli rRNA inh	Ecoli rRNA inh OD600	Ecoli rRNA inh RFP	E coli growth	FGF22 binding	ALR H2O2 inh	HNF4A DNA FP	AF4-AF9 inh
Nc1nc(N)c2c(ccc3c2ccn3Cc2cccc([N+](=O)[O-])c2)n1	.	-56	-73	-22	.	i	.	2.3	7.7
O=C(Nc1cccc(-c2cccc(F)c2)c1)C1CCN(Cc2ccco2)CC1	.	-11	-23	1.5	0.67	i	-9	-2.5	3.9
CSCCC(NC(=O)c1ccco1)C(=O)N1CCN(c2ccccc2O)CC1 (stereo not drawn)	-2%	-3	-1	0.0	0.66	i	57	2.0	1.7
CC(=O)N1CCCCN2[C@H](CO)[C@@H](c3ccc(-c4cccc(C)c4)cc3)[C@@H]2C1	.	-5	-8	0.2	.	i	.	.	-1.1
C(=C\c1nc(-c2ccccc2)no1)/c1ccccc1	16%	-11	-2	-2.5	.	i	-44	-0.6	2.6
CCOC(=O)N1CCC(N(CCOC)C(=O)Nc2ccc(Cl)cc2)CC1	-1%	-16*	3.6*	-3.1*	0.62	i	-6	0.9	-2.9
Cc1ccc(C(=O)N2CCC(C(N)=O)CC2)cc1C	22%	.	.	.	0.72	.	0	-0.5	.
COc1ccc(CN2CCC(C(=O)c3cccc(Cl)c3)CC2)cc1	-1%	-3	0	-3.0	0.7	i	-1	2.4	-0.8
COc1ccc(S(=O)(=O)N2CCCCCC2)cc1C(=O)Nc1ccc(C(=O)N(C)C)cc1	2%	6	1	0.4	0.66	i	.	-4.6	-1.8
O=C(Nc1ccncc1)c1cccc(F)c1	-2%	.	.	.	0.72	.	-2	0.4	.
Cc1cc(C)n(-c2nnc(C)n2/N=C/c2ccc(O)cc2)n1	10%	13	-3	-13	.	i	-2	-2.9	0.2
O=C(NCc1ccccc1Cl)/C(=C\c1cccnc1)NC(=O)c1ccccc1	.	4	12	0.5	0.68	i	.	0.5	-3.8

Reformatted with two lines to a compound: part of the list above
Every second line gives: Vif A3G, Ecoli rRNA inh, Ecoli rRNA inh OD600, Ecoli rRNA inh RFP, E coli growth, FGF22 binding, ALR H2O2 inh, HNF4A DNA FP, AF4-AF9 inh
> Cc1ccc(C(=O)N2CCC(C(N)=O)CC2)cc1C
  22%, ., ., ., 0.72, ., 0, -0.5, .
> CSCCC(NC(=O)c1ccco1)C(=O)N1CCN(c2ccccc2O)CC1 (stereo not drawn)
  -2%, -3, -1, 0.0, 0.66, i, 57, 2.0, 1.7

Next part:
SMILES	Vif A3G	Ecoli rRNA inh	Ecoli rRNA inh OD600	Ecoli rRNA inh RFP	E coli growth	FGF22 binding	ALR H2O2 inh	HNF4A DNA FP	AF4-AF9 inh
C[C@@H]1CN([C@@H](C)CO)C(=O)c2cc(NS(=O)(=O)c3ccc(Cl)cc3)ccc2O[C@@H]1CN(C)S(=O)(=O)c1cccs1	.	-4	-17	3.8	.	i	.	.	-4.7
CCc1cccc(NC(=O)CN(C)S(=O)(=O)c2cccs2)c1	0%	-18	-12	-1.3	0.64	i	-21	-1.9	-2.2
COc1cccc(-c2cnc3c(c2)C(=O)N([C@@H](C)CO)C[C@@H](C)[C@H](CN(C)CC2CCOCC2)O3)c1	.	1	11	-0.6	.	i	.	.	-3.0
O=C(O)Cn1ncc2c1-c1ccoc1CC2	8%	5	6	2.9	0.76	i	-6	-3.8	-6.5
Cc1ccc(S(=O)(=O)Nc2ccc3c(c2)C(=O)N([C@@H](C)CO)C[C@@H](C)[C@@H](CN(C)S(=O)(=O)c2ccccc2)O3)cc1	.	-1	-11	5.4	.	i	.	.	0.1
CCC(=O)N1CC2(C1)[C@H](c1ccc(-c3ccc(F)cc3)cc1)[C@@H](CO)N2C(C)=O	.	-2	-3	-1.0	.	i	.	.	1.8
COc1ccc(-n2nc3c(N4CCC(C(=O)N5CCCCCC5)CC4)nnc(C)c3c2C)cc1	.	-18	-16	5.9	.	i	-5	12	5.9
Cc1ccc2nc(NC(=O)C3=NN(c4ccccc4)C(=O)CC3)sc2c1	13%	-2	-4	0.2	0.65	i	-26	1.5	-1.2
CC1CCN(Cc2cnc(Cl)s2)CC1	67%	.	.	.	0.76	.	-11	3.2	.
Cc1ccc(C(=O)CSc2ncnc3ccccc23)o1	.	2	1	1.1	0.65	i	99*	-0.8	-1.2
COc1ccc(S(=O)(=O)Nc2ccc3c(c2)C(=O)N([C@H](C)CO)C[C@H](C)[C@H](CN(C)S(=O)(=O)c2ccccc2)O3)cc1	.	1	-2	1.3	.	i	.	.	0.3
CS(=O)(=O)c1ccc(NC(=O)c2ccc3c(c2)S(=O)(=O)N=C2CCCCCN23)cc1	2%	4	7	-0.6	0.68	i	-3	-1.2	-0.5
O=c1oc2ccccc2c(NC2CCCCC2)c1NS(=O)(=O)c1ccc(Cl)cc1	.	12	7	-0.4	0.73	i	57	-2.9	0.8
CCCCc1c(O)nc(SC2CC(=O)N(c3ccc(C(=O)OCC)cc3)C2=O)[nH]c1=O (stereo not drawn)	.	-13	-11	-1.3	0.7	i	1	-2.4	0.7
CCOc1ncccc1C(=O)OC(C)C(=O)Nc1ccc(CC)cc1 (stereo not drawn)	?	-1	-1	0.5	0.68	i	-2	-6.9	-2.8
Cc1ccc(N2CC(NC(=O)N3CCN(C(=O)c4ccco4)CC3)CC2=O)cc1 (stereo not drawn)	43%	9	7	-1.2	0.66	i	2	-2.7	1.3
COc1ccc(NC(=O)Nc2ccccc2SC)c(OC)c1	-8%	9	8	-4.9	0.66	i	-35	0.3	-4.6
COc1ccc(CN(C)C[C@@H]2Oc3ccc(NS(=O)(=O)c4ccc(C)cc4)cc3C(=O)N([C@@H](C)CO)C[C@H]2C)cc1	.	0	4	-0.5	.	i	.	.	-4.0
COCCNC(=O)C1(C)CCCN(C(=O)c2ccc3c(c2)OCO3)C1 (stereo not drawn)	.	-30	-48	14	.	i	.	3.9	-3.3
Cc1ccc(OCCCCn2c(CO)nc3ccccc32)cc1	5%	-17	-22	2.3	0.68	i	-3	-1.8	1.2
COc1ccc(C2C(C(C)=O)=C(O)C(=O)N2c2cccnc2)c(OC)c1 (stereo not drawn)	27%	.	.	.	0.66	.	0	-0.2	.
O=C1c2ccccc2C(=O)N1N(c1ccccc1)c1ccccc1	-1%	-32	-27	1.6	0.7	i	.	2.9	5.1
O[C@@H]1C[C@H](c2ccc(Cl)cc2)N(CC2CCCCC2)C[C@H]1n1cc(C2CC2)nn1	-1%	5	6	2.4	.	i	.	-4.0	-6.1
COc1ccccc1CNc1nc(NCc2cnc(C)cn2)c2sccc2n1	.	15	8	-0.4	.	i	.	-0.7	3.3
O=c1c2oc3ccccc3c2ncn1Cc1ccc(F)cc1	-11%	8	-11	-0.1	0.71	i	-4	0.4	-2.2
COc1ccc(NC(=O)CN2CCC(C(N)=O)(N3CCCCC3)CC2)c(OC)c1	-3%	9	7	-2.9	0.69	i	-6	2.9	-1.7
COC(=O)CCCC1=CC2=C(c3ccccc3)C(=O)C(C)(OC(=O)C3CCCC3)C(=O)C2=CN1Cc1ccco1 (stereo not drawn)	.	22	25	17	0.72	i	-10	-8.3	7.2
Cc1ccc[n+](-c2nc([O-])sc2/C=N/Nc2ccc([N+](=O)[O-])cc2)c1	.	10	0	-0.7	.	i	92*	-17	-4.2
Cc1cc(NC(=O)NCc2ccccc2)c(=O)n(Cc2ccc(F)cc2)c1	.	2	2	7.1	0.68	i	-13	1.7	-0.3
CCOC(=O)N1CCC(NC(=O)C2CCCN(S(=O)(=O)c3ccc4c(c3)oc(=O)n4C)C2)CC1 (stereo not drawn)	3%	6	4	1.3	0.68	i	-2	-1.0	8.1
O=C(CSc1ccc2nnc(-c3ccccn3)n2n1)Nc1ccccc1	0%	5	10	0.2	0.68	i	-8	-15	-0.2
c1ccc2c(c1)SCc1nnc(-c3ccncc3)n1-2	-4%	9	12	-0.3	0.66	i	-2	0.8	1.3
CCC(=O)NCCn1c(C)cc2ccccc21	15%	.	.	.	0.73	.	2	-2.9	.
Cc1ccc(C)c(NS(=O)(=O)c2ccc(OCC(=O)NCC3CCCO3)cc2)c1 (stereo not drawn)	2%	-7	-14	-0.8	0.69	i	1	3.1	-1.5
Cc1ccc([C@H]2C[C@H](O)[C@@H](n3cc(COC(=O)c4ccccc4)nn3)CN2C(=O)c2cccs2)cc1	.	-7	-3	1.2	.	i	.	-2.1	-0.9
COc1cccc(C(=O)CSc2nnc(-c3ccco3)n2CC2CCCO2)c1 (stereo not drawn)	2%	.	.	.	0.72	.	91*	1.0	.
CN(C)c1ccc(-c2nc3cnccn3c2Nc2ccc3c(c2)OCCO3)cc1	18%	-12	-15	2.1	0.66	i	98*	7.5	8.8
Nc1nc(-c2cc3ccccc3o2)cs1	4%	-12	-3	-2.3	0.68	i	-4	-1.1	-9.8
CCn1c(SCC(=O)c2ccc(OC)cc2)nnc1C(C)NC(=O)c1ccc(OC)cc1 (stereo not drawn)	-2%	.	.	.	0.77	.	0	2.7	.
Cc1ccc(C(=O)C2(C)C3c4cc(Br)ccc4OC(=O)C32C(=O)c2ccco2)cc1 (stereo not drawn)	-7%	.	.	.	0.61	.	-11	2.7	.
Cc1ccc(OCCC(=O)N(Cc2ccccc2)c2c(N)n(Cc3ccccc3)c(=O)[nH]c2=O)cc1	.	-14	-11	3.9	.	i	.	-0.7	2.6
CCc1nc(=O)c(-c2ccccc2)c(C)n1-c1ccccc1	.	4	10	-0.1	0.7	i	.	1.7	1.7
CCC(C)NC(=O)CN(c1cc(C)cc(C)c1)S(=O)(=O)c1c(C)[nH]c(=O)[nH]c1=O (stereo not drawn)	15%	11	4	10	0.69	i	-5	-1.1	-1.8
CC(=O)Oc1ccc(/C(C)=N/N2CCN(Cc3ccc(C)cc3)CC2)cc1	.	8	13	1.1	.	i	5	1.1	5.8
CCCc1cn(CC[C@H]2CC[C@@H](NC(=O)C3CC3)[C@H](CO)O2)nn1	.	-2	8	-3.5	.	i	.	.	-1.5
CCOc1ccc(CCNC(=O)COC(=O)COc2ccc(C#N)cc2)cc1OCC	-3%	6	14	2.1	0.65	i	.	3.8	1.1
Cc1ccnc(SCC(=O)N2CCN(c3cccc(Cl)c3)CC2)n1	3%	.	.	.	0.65	.	19	-2.2	.
O=C(NCc1ccco1)C1CCN(C(=O)c2ccc(Cl)cc2)CC1	-4%	.	.	.	0.71	i	-3	3.9	-0.3
CC(C(=O)Nc1ccc2c(c1)OCO2)N(C)CC(=O)Nc1ccc(Cl)cc1 (stereo not drawn)	.	0	-5	-5.9	0.66	i	.	0.4	6.1
CCCCC(c1nnnn1CCOC)N1CCN(C)CC1 (stereo not drawn)	?	.	.	.	0.64	.	10	1.4	.
CCN(CC)C(=O)C1CCN(CC2CC=CCC2)CC1 (stereo not drawn)	4%	.	.	.	0.65	.	0	1.9	.
C=C1CCN([C@@H](CC(C)C)C(=O)Nc2nc3ccc(Cl)cc3s2)S(=O)(=O)c2ccccc21	.	5	2	-2.1	.	i	1	-1.6	3.3
C[C@@H]1CN([C@@H](C)CO)C(=O)c2cccc(NC(=O)Nc3ccc4c(c3)OCO4)c2O[C@H]1CN(C)S(C)(=O)=O	.	-5	-3	1.4	.	i	.	.	-2.9
